Source: PubChem BioAssay
GCN5L2 inh: blocks human GCN5L2 histone acetyltransferase; Q92830; GCN5L2 HAT assay, ThioGlo1 CoA-SH fluorescence; Potency, µM (highest dose often 58.9 µM), for inactives: at the top dose activity change, negative = inhibition, usual class: inhibitors; 390,000 compounds, 0.21% hits; active = well fitted inhibition curve with a large enough effect; inconclusive = small, poorly fitted or top-dose-only effect, or another doubt; inactive = no such curve, though single readings can be large or run the other way
Target sequence (Q92830 whole entry, looked up): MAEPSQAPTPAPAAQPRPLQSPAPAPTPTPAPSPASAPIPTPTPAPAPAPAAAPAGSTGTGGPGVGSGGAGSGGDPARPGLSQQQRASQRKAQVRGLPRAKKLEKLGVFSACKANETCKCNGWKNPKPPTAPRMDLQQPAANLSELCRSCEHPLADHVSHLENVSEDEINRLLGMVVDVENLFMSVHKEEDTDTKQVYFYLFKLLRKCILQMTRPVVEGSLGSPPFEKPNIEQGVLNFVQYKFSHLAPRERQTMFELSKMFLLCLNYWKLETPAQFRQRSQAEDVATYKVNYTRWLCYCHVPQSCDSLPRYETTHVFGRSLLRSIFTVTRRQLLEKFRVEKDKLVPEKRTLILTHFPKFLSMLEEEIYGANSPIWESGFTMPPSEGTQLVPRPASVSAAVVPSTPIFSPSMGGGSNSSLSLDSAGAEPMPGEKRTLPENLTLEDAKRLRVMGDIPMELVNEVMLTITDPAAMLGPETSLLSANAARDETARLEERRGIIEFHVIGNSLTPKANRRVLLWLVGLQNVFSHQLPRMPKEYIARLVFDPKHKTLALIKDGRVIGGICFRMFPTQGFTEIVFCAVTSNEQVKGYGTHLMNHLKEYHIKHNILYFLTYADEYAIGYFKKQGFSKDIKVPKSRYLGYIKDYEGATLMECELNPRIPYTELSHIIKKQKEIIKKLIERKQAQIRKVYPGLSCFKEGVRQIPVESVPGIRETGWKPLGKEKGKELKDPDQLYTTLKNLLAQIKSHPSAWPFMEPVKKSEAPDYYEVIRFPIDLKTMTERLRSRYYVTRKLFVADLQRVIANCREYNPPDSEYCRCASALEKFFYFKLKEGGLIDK
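Titration-based screen in which CoA formation is detected via maleimide probe ThioGlo1 (50uM) turning fluorescent on thiol reaction; substrates H3(1-25) 75uM and acetyl-CoA 70uM, GCN5L2 20nM, 20 min incubation at room temperature.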
* marks the source's active call; other numbers are inactive results; ? = inconclusive; & = joins results of further samples; [ ] = dose if it differs, or a comment. % is set by controls: 0 for no effect and ±100 for the full control effect; potency is the fitted concentration of half-maximal effect. This is a subset; most or all hits stand in other tables.

A first look, seven compounds:
| SMILES | GCN5L2 inh |
| --- | --- |
| COc1ccc(C2(CNC(=O)C(c3ccccc3)c3ccccc3)CCOCC2)cc1OC | 0% |
| Cc1ccc(C2=NN(CC(=O)NCCN(CC(C)C)CC(C)C)C(=O)CC2)cc1 | 3%&-11% |
| CCOc1ccc(/C=N/NC(=O)CN2CCCCCCC2)cc1 | -1% |
| Cc1onc(-c2ccccc2)c1C(=O)N/N=C/c1c(F)cccc1Cl | -12% |
| O=C(Nc1ccc(NC(=O)c2ccco2)nc1)c1cccnc1 | -2% |
| Cc1nc2ccc(NC(=O)CSc3nnc(C)s3)cc2[nH]1 | -3% |
| O=C(CCN1CCCC1=O)NC1CCCc2c1cnn2-c1ccccc1F (centres undefined) | -2% |

The listing (from the top)
| SMILES | GCN5L2 inh |
| --- | --- |
| COc1ccc(C2(CNC(=O)C(c3ccccc3)c3ccccc3)CCOCC2)cc1OC | 0% |
| Cc1ccc(C2=NN(CC(=O)NCCN(CC(C)C)CC(C)C)C(=O)CC2)cc1 | 3%&-11% |
| CCOc1ccc(/C=N/NC(=O)CN2CCCCCCC2)cc1 | -1% |
| Cc1onc(-c2ccccc2)c1C(=O)N/N=C/c1c(F)cccc1Cl | -12% |
| O=C(Nc1ccc(NC(=O)c2ccco2)nc1)c1cccnc1 | -2% |
| Cc1nc2ccc(NC(=O)CSc3nnc(C)s3)cc2[nH]1 | -3% |
| O=C(CCN1CCCC1=O)NC1CCCc2c1cnn2-c1ccccc1F (centres undefined) | -2% |
| COC(=O)c1c(C)[nH]c(C(=O)COC(=O)CCNS(=O)(=O)c2cccc(C(F)(F)F)c2)c1C | -1% |
| CCCOc1ccc(NC(=O)c2c(-c3ccccc3)noc2C)cc1 | -4% |
| CN(CC(=O)Nc1ccccc1Cl)C(=O)CSc1nnc(-c2ccco2)o1 | ? |
| CC1CCN(c2ccc(-c3ccc(NC(=O)c4ccco4)cc3)nn2)CC1 | 4% |
| Cc1ccc(C)c(NC(=S)N(C2CCCCC2)C(C)c2cccnc2)c1 (centres undefined) | 19% |
| Cc1nn(CC(=O)NCc2ccc(OC(C)C)cc2)c(=O)c2cc(-c3ccccc3)nn12 | -4% |
| CCOC(=O)C1=C(C)NC(SCC(=O)Nc2cc(C)on2)=C(C#N)C1c1cccs1 (centres undefined) | -5% |
| COC(=O)CSc1nnc(NC(=O)/C=C\c2ccc3c(c2)OCO3)s1 | -2% |
| O=C(Cn1[nH]c(=O)c2ccccc2c1=O)NCCN1C(=O)S/C(=C\c2ccccc2)C1=O | -9% |
| CC1CN(C(=O)Nc2ccc3c(c2)OCO3)CC(C)O1 (centres undefined) | -13% |
| COc1ccc(/C=C2\Sc3ccc(C(=O)NCCCN4CCCC4)cc3N(C)C2=O)cc1OC | -4% |
| CN(Cc1ccon1)C(=O)CC1C(=O)NCCN1Cc1ccc(F)c(F)c1 (centres undefined) | 3% |
| CC(C)(C)C(=O)Nc1cc(NC(=O)C(C)(C)C)cc(C(=O)Nc2cc(C(=O)O)cc(C(=O)O)c2)c1 | -1% |
| COc1ccc(NC(=O)CSc2nnc(-c3ccco3)n2C)cc1 | -3% |
| CC(=O)OC(C(=O)NCS(=O)(=O)c1ccc(C)cc1)c1cccnc1 (centres undefined) | -5% |
| CCOC(=O)C1CN(S(=O)(=O)c2ccc(F)cc2)C1 | -3% |
| Cc1noc(N)c1C1(O)C(=O)Nc2c(Cl)cc(Cl)cc21 (centres undefined) | -3% |
| CCOC(=O)c1[nH]c(C)c(C(=O)OCC(=O)N2CC(=O)Nc3ccccc32)c1C | -7% |
| CCC(CO)Oc1cc(NCc2cccc(F)c2)c2ncn(C(C)C)c2c1 (centres undefined) | -5% |
| CC(=O)c1ccc(NC(=O)COCc2cc(-c3ccc(F)cc3)on2)cc1 | -2% |
| O=C(CCNS(=O)(=O)c1ccccc1C(F)(F)F)NCCCSc1ccccc1 | -3% |
| Cc1ccc(CN2C(=O)CCC2C(=O)NCCCN2CCOCC2)cc1 (centres undefined) | -12% |
| COc1cccc(CNS(=O)(=O)/C=C/c2ccc3c(c2)OCO3)c1 | -2% |

3 compounds drawn at random from those above, as already listed:
| SMILES | GCN5L2 inh |
| --- | --- |
| CN(Cc1ccon1)C(=O)CC1C(=O)NCCN1Cc1ccc(F)c(F)c1 (centres undefined) | 3% |
| Cc1ccc(C)c(NC(=S)N(C2CCCCC2)C(C)c2cccnc2)c1 (centres undefined) | 19% |
| CCOC(=O)C1CN(S(=O)(=O)c2ccc(F)cc2)C1 | -3% |

New compounds follow
| SMILES | GCN5L2 inh |
| --- | --- |
| Cc1cc(C)cc(NC(=O)COc2ccc(C(=S)N3CCOCC3)cc2)c1 | -11% |
| CCN(c1ccccc1)S(=O)(=O)c1cccc(C(=O)NCCOc2ccccc2OC)c1 | -1% |
| CCOC(=O)c1sc2nc(N3CCOCC3)c3c(c2c1N)CC(C)(C)N(C)C3 | -5% |
| Cc1cc(C)n(CCNS(=O)(=O)c2ccccc2)n1 | 1% |
| O=C(CSCc1ccccc1)Nc1ccc(S(=O)(=O)N2CCOCC2)cc1 | 4% |
| CC(C)(C)n1nnnc1CN(Cc1ccco1)Cc1cc2cc3c(cc2[nH]c1=O)OCO3 | -2% |
| Nc1ccc2oc(-c3cccc(Br)c3)nc2c1 | -2% |
| CC(Oc1ccc(-c2nccc(-c3ccccn3)n2)cc1)C(=O)NN (centres undefined) | -3% |
| O=C(CSc1nnc(CCCN2C(=O)c3cccc4cccc(c34)C2=O)n1-c1ccccc1)N1CCCCC1 | 37%[activator] |
| CSc1cccc(CN2CCC(n3nccc3NC(=O)C3CC3)CC2)c1 | -3% |
| CCc1ccc(CNC(=O)c2cc3c(C)nc4ccccc4c3o2)cc1 | 3% |
| COc1ccc(C)cc1NC(=O)c1cc2c(=O)n3ccccc3nc2n1C | -9% |
| Cc1sc2nc(SCc3nnc(-c4cccs4)o3)n(C3CCCC3)c(=O)c2c1C | -5% |
| CC(C)C[C@H](NC(=O)c1nc[nH]c1C(=O)N(C)Cc1ccccc1)C(=O)OC(C)(C)C | -15% |
| CC(C)C[C@H]1C(=O)N2CCC[C@@H]2[C@]2(O)O[C@](NC(=O)[C@@H]3C=C4c5cccc6[nH]c(Br)c(c56)C[C@H]4N(C)C3)(C(C)C)C(=O)N12 | -23% |
| CC(=O)OCC(=O)Nc1cc(S(=O)(=O)N2CCCCCC2)ccc1Cl | -4% |
| Cc1ccccc1-n1nnnc1SCC(=O)NNC(=O)c1ccc(NC(=O)CC#N)cc1 | -4% |
| Cc1sc[n+](CC(=O)c2ccc(Br)cc2)c1C | -8% |
| Cc1nn(CCC(=O)Nc2ccccc2Br)c(=O)c2nn(-c3ccccc3)c(C)c12 | -5% |
| O=C(CSc1nc2ccsc2c(=O)n1Cc1ccccc1F)NCc1ccccc1Cl | -8% |
| CCc1nn(CC(=O)N2CCN(c3cccc(C)c3C)CC2)c(=O)c2cc3occc3n12 | 1% |
| C[C@H](CO)N1C[C@H](C)[C@@H](CN(C)C(=O)NC2CCCCC2)Oc2c(NC(=O)Nc3ccc(C(F)(F)F)cc3)cccc2C1=O | -3% |
| CCOc1cccc(OCCCCN2CCOCC2)c1 | -7% |
| CCN(CC)S(=O)(=O)c1cc(C(=O)N(C)CC(=O)Nc2ccc(Cl)cc2)ccc1Cl | 2% |
| Cc1ccsc1-c1n[nH]c(=S)n1C1CCCCC1 | 3% |
| Cc1c(C(=O)N(Cc2cccs2)C2CCS(=O)(=O)C2)oc2ccccc12 (centres undefined) | -3% |
| COCc1cc(=O)[nH]c(SC)n1 | -1% |
| CCc1ccc(N2CC(C(=O)NC3CCCCC3C)CC2=O)cc1 (centres undefined) | 0% |
| CCOC(=O)CSc1nc(N2CCOCC2)c2c(c1C#N)CC(C)(C)N(C)C2 | -7% |
| CCc1ccc(C(=O)COC(=O)C(CCSC)NC(=O)c2ccccc2)cc1 (centres undefined) | 5% |

Remaining list, next part:
Molecule,GCN5L2 inh
CCOC(=O)C1=C(N)OC2=C(C(=O)CC(C)(C)C2)C1c1ccccc1OC (centres undefined),-6%
COc1cc(C(=O)N(Cc2ccc(F)cc2)Cc2ccco2)cc(OC)c1OC,-8%
Cc1ccc(C)c(C(=O)CN2C(=O)NC3(CCCCCCC3)C2=O)c1,-11%
CCc1nc2sccc2c(=O)n1N,-3%
NC(=O)NC(c1ccccc1)c1cccc2ccccc12 (centres undefined),1%[0.501 µM]
Cc1cc(C(F)(F)F)n(-c2nc(C(=O)NNS(=O)(=O)c3ccccc3[N+](=O)[O-])cs2)n1,0%
Cc1c(CN2CCC(C(=O)Nc3cccc(-c4cccc(Cl)c4)c3)CC2)cnn1C,-6%
CCn1c(-c2cc(OC)ccc2OC)csc1=Nc1c(C)n(C)n(-c2ccccc2)c1=O,-3%
CCn1c(SCC(=O)N2CCC(C)CC2)nc2c(c1=O)SC(C)C2 (centres undefined),-4%
CC(NS(=O)(=O)c1ccccc1)C(c1cccs1)N1CCN(c2ccccc2)CC1 (centres undefined),-6%
CCN1CCN(C(=O)c2ccc3c(c2)N(Cc2ccccc2)C(=O)c2ccccc2S3=O)CC1 (centres undefined),-6%&0%
COc1ccc(-c2cc(-c3ccccc3)nc3ncnn23)cc1,-11%
COCCNC(=O)c1onc(CSc2cccc(Cl)c2)c1C(=O)O,-13%
Cc1ccc(NC(=S)N2C3CCCC2CC(NC(=O)C2CC2)C3)cc1C (centres undefined),-4%
Cc1cc(C)c(C#N)c(SCS(=O)Cc2ccc(Cl)cc2)n1 (centres undefined),1%
COC(=O)C1=C(C)NC(C)=C(C(=O)OCCN(C)Cc2ccccc2)[C@H]1c1cccc([N+](=O)[O-])c1,-9%[21.4 µM]
COc1ccc(-n2nc(C(=O)NCC(=O)NCCCN3CCOCC3)c3ccccc3c2=O)c(OC)c1,3%
Cc1ccc(C(=O)Cn2c3c(sc2=N)CCCC3)cc1,-6%&-11%
CC1=CC(=O)N(c2cccc(C(F)(F)F)c2)C1c1ccc(Cl)cc1 (centres undefined),-17%
Cc1cc(C)cc(N2C(=O)CC(N(C(=O)c3ccco3)c3cc(C)cc(C)c3)C2=O)c1 (centres undefined),-1%

Remaining list, next part
Molecule,GCN5L2 inh
COc1ccc(NS(=O)(=O)/C=C/c2ccc(OC)c(OC)c2)cc1,-10%
CCOc1ccc(N(C)S(=O)(=O)c2c[nH]c(C(=O)OC)c2)cc1,1%
CC(C)(C)C(=O)Cn1c(=O)n(-c2ccc(F)cc2F)c(=O)c2sccc21,-13%
Cc1ccc(-n2cc(-c3ccccc3)c3c(N4CCN(C)CC4)ncnc32)cc1,-2%
O=S1(=O)N=C(Nc2ccc(N3CCOCC3)cc2)c2ccccc21,3%
CC(C)CC(=O)NC(=S)Nc1nc(-c2ccc(Cl)cc2)cs1,-2%
CC(NC(=O)c1ccc(Cl)cc1)c1nnc(SCc2ccc([N+](=O)[O-])cc2)n1C (centres undefined),4%
CC(C)C[C@@H](CSc1ccc(Br)cc1)N1CCN(CCc2ccccc2)CCC1=O,-3%
N#Cc1cc2ccccc2nc1N,-11%
COc1ccc(NC(=O)CCCSc2ccccc2)cc1S(N)(=O)=O,-1%
Cc1cc(NC(=O)CCC(=O)N(c2ccccc2)C(C(=O)NC2CCCC2)c2cccs2)no1 (centres undefined),1%
Cc1ccc(NC(=O)c2ccc(F)cc2F)cc1NS(C)(=O)=O,?
O=C(NCCS(=O)(=O)NC1CCCC1)c1ccc(F)cc1,4%
CC(=O)NS(=O)(=O)c1ccc(NC(=O)c2cc(-c3ccc(C)cc3)nc3ccccc23)cc1,50%[activator]
CCO/C([O-])=N/c1sn[n+](C)c1C,-4%
COc1ccc(OCc2cc(C(=O)N3C[C@@H](C)O[C@@H](C)C3)no2)c(Cl)c1,-3%
COC(=O)c1sc(N2C(=O)C(O)=C(C(=O)c3ccc(C)o3)C2c2ccc(OC)c(OC)c2)nc1C (centres undefined),?
O=C(OCCN1C(=O)c2ccccc2C1=O)c1cc2ccccc2o1,-9%
CCC(=O)N1CCc2cc(Br)cc(S(=O)(=O)NCCc3ccccc3)c21,-1%
COC(=O)c1ccsc1-n1cc(C#N)c(=O)n(C)c1=O,-5%

Next part
Molecule,GCN5L2 inh
CCN(c1ccccc1)S(=O)(=O)c1ccc(N2CCN(c3ccccc3O)CC2)nc1,-12%
NC(=O)C1CCN(C(=O)CN2CCCc3ccccc32)CC1,0%
COC(=O)C(C)(C)ONC(=O)Nc1ccc([N+](=O)[O-])cc1,-6%
CCN(Cc1ccccc1)C(=O)CSc1ccccc1C(=O)O,2%
Cc1ccc(-c2cc(C(=O)NCCc3ccc(S(N)(=O)=O)cc3)c3ccccc3n2)cc1,-4%
CCOC(=O)N1CCN(C(=O)c2cccc(S(=O)(=O)Nc3ccccc3Cl)c2)CC1,-2%
Cc1ccc(NC(=O)C2CCC(CNS(=O)(=O)c3ccc4c(c3)CCCC(=O)N4)CC2)cc1F (centres undefined),-5%
CCC(Oc1ccccc1)C(=O)Nc1ccc(S(=O)(=O)N2CCOCC2)cc1 (centres undefined),-1%
Cc1nn(CCO)c(C)c1Oc1ccccc1O,-5%
CC(C)n1cc(CN2CCCC(C(=O)Nc3cccc(-c4cc5ccccc5[nH]4)c3)C2)cn1 (centres undefined),-4%
COc1ccccc1C(=O)NCC(=O)OCC(=O)N(CC(C)C)c1c(N)n(Cc2ccccc2)c(=O)[nH]c1=O,-8%
Cc1cccc(S(=O)(=O)Nc2cccc(-c3cn4ccsc4n3)c2)c1,0%
Cc1cc(-n2nc(C)cc2C)n2nc(C)c(-c3ccc(Cl)cc3)c2n1,3%
O=C1/C(=C/c2cccs2)SC(=S)N1CC(=O)N1CCCCC1CCO (centres undefined),-11%
CC1=CC(=C(C#N)C#N)C=C(C)N1Cc1ccc(Cl)cc1,-3%
Cc1c(C(=O)OCC(=O)N2CC(=O)Nc3ccccc32)oc2ccc(Br)cc12,1%
O=C(Nc1ccccc1N1CCCC1)C1CCN(S(=O)(=O)c2cccc(C(F)(F)F)c2)CC1,-2%
